Screening data deposited in PubChem by National Center for Advancing Translational Sciences (NCATS).
GLA inh pH 4.5 = alpha-galactosidase A (human) inhibition, pH 4.5. activity change, negative = inhibition, % at 105 µM. P06280. 230,000 tested, under 10 active. purified enzyme, 4-MU-alpha-Gal fluorescence, pH 4.5. AID 1467; inconclusive = small, poorly fitted or top-dose-only inhibition, or a rising curve; inactive = flat fitted curve, though single readings scatter; no compound was filed as active;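 also: 0% = full activity with enzyme and -100% = basal without enzyme; dose as in the result columns while the protocol names 77 µM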
Target sequence (P06280 whole entry, looked up): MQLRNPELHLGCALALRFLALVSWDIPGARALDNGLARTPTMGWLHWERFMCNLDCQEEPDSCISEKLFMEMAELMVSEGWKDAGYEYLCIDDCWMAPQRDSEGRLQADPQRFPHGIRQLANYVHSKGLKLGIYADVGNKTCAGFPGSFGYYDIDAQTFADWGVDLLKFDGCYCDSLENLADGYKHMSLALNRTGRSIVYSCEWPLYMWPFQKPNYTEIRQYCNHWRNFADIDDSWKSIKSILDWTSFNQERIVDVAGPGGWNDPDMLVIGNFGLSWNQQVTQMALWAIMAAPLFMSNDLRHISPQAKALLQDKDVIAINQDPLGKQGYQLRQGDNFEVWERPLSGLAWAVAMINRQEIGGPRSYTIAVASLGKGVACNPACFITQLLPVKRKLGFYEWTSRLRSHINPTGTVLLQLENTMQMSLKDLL
Rango release inh = inhibition of RanGTP-driven Rango-importin beta dissociation. AID 540253. O95149+P62826. Biochemical FRET Rango-importin beta, RanGTP-induced dissociation. Potency, µM (highest dose often 46.1 µM), for inactives: at the highest dose activity change, negative = inhibition. hit rate 0.071% among 340,000; active means falling FRET ratio curve, often poorly fitted, with flat reads before Ran was added; inconclusive means other falling curves, or compound fluorescence or quenching; inactive means flat or rising ratio curve;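 also: potency is read from the fitted curve at half-maximal effect; % of control where 0% means no effect; nearly all actives have a fitted effect of over 45% in size; -100% = wells without RanGTP and RCC1; the record marks most hits as doubtful in a second field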
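Rango FRET biosensor (snurportin-1 IBB flanked by N-terminal EYFP and C-terminal CFP10) at 0.1 uM, with 0.25 uM importin beta in PBS, 1mM DTT, 0.02% Tween-20, 0.1% BSA. 0.6 uM Ran, 2mM GTP and 0.2 uM RCC1 were then added for 45 min at room temperature. Inhibition read as loss of FRET rise.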
Rango complex inh = Rango-importin beta binding inhibition; Rango CFP/YFP FRET sensor + importin beta, 45 min; Potency, µM (series often up to 92.2 µM), for the others: top-dose inhibition of complex formation; hit rate 0.031% among 340,000; AID 540263; active = rising FRET ratio curve, often small or poorly fitted; inconclusive = mostly compound fluorescence or quenching in the first reads; inactive = flat curves in all reads;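 also: potency is read from the fitted curve at half-maximal effect; 0% = DMSO wells and 100% = buffer wells lacking importin beta; nearly all actives have a fitted effect of over 15% in size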
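FRET biosensor (snurportin 1 IBB flanked by EYFP and cerulean), 50 nM, with compound 5 min, then 0.125 microM importin beta in PBS, 1 mM DTT, 0.02% Tween-20, 0.1% BSA. CFP/YFP ratio read after 45 min at room temperature; pre-read flags interference.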
miR-21 FLuc = miR-21 reporter, rising signal; HeLa miR-21 FLuc reporter, luciferase, 48 h; Potency, µM (top dose mostly 38.3 µM), for the others: at the highest dose reporter change, positive = more light; 340,000 tested, under 10 active; AID 2288; active = well fitted rising curve with a large enough effect; inconclusive = small, poorly fitted or top-dose-only effect; inactive = no such curve, though single readings can be large or run the other way;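 also: % of control where 0% means no effect; miR-21 action dims this reporter so a rising signal means less miR-21 action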
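HeLa cells stably expressing CMV-driven firefly luciferase with a downstream miR-21 binding sequence, endogenously expressing miR-21, were treated with titrations (up to about 40uM final) for 48 hours at 37 degree Celsius. Luciferase luminescence was read after lysis.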
Starred values were filed as active, the others as inactive; & = joins results of further samples. This is a subset; count on the stated rates, not on these rows.

`CCCOc1ccc(C2C(C(=O)c3ccc(C)o3)=C(O)C(=O)N2Cc2ccco2)cc1` (stereo not given) gave Rango release inh -20%, Rango complex inh inconclusive and miR-21 FLuc -7%.
CNc1nc(NC)c2cn[nH]c2n1 was read as Rango release inh 4% and Rango complex inh -0.1%.
`Cc1ccc(-c2[nH]ncc2C(=O)c2ccc(Br)cc2)c(O)c1` gave Rango release inh 2%, Rango complex inh 2.7% and miR-21 FLuc -4%.
Cc1cccc(CNC(=O)CCn2ccc3cc(S(=O)(=O)N4CCCC4)ccc32)c1 was read as Rango release inh -16%, Rango complex inh 2.6% and miR-21 FLuc -3%&-2%.
For O=C(Nc1ccc(F)cc1)c1cccnc1 the results were Rango release inh -8%, Rango complex inh -0.7% and miR-21 FLuc -11%.
N#Cc1c(-c2ccccc2Cl)c2c([nH]c1=O)-c1ccccc1OC2 was read as GLA inh pH 4.5 inconclusive, Rango release inh inconclusive, Rango complex inh inconclusive and miR-21 FLuc -2%.
Screening CN(C)Cc1ccccc1Cc1ccccc1 returned GLA inh pH 4.5 -4, Rango release inh 2%, Rango complex inh 0.1% and miR-21 FLuc -9%.
NC(=O)CC[C@H](NC(=O)c1ccc(F)cc1)C(=O)OCC(=O)NCc1ccc2c(c1)OCO2 was read as Rango release inh 9% and Rango complex inh -0.6%.
Screening COc1cccc(Nc2c(F)c(OC)c(F)c(F)c2C(=O)O)c1 returned GLA inh pH 4.5 0, Rango release inh -17%, Rango complex inh -1.2% and miR-21 FLuc -5%.
Screening Cn1ccs/c1=N\C(=O)Nc1ccccc1 returned GLA inh pH 4.5 8, Rango release inh 18%, Rango complex inh 3.2% and miR-21 FLuc -46%.
`CCOc1ccc(CCNC(=O)CN2C(=O)c3cccnc3Oc3ccc(C)cc32)cc1OCC` gave Rango release inh -3%, Rango complex inh -2.0% and miR-21 FLuc 5%&-1%.
`COc1c(C(C)C)cc(NC(C)=O)cc1C(C)C` gave GLA inh pH 4.5 2, Rango release inh 1%, Rango complex inh -3.4% and miR-21 FLuc 0%.
For Nn1cc(-c2ccccc2)nc1SCC(=O)NCCN1C(=O)CSC1=O the results were GLA inh pH 4.5 -11, Rango release inh 2%, Rango complex inh 0.2% and miR-21 FLuc -14%.
Screening Cc1onc(-c2c(Cl)cccc2Cl)c1C(=O)N1C(C)CCCC1C (stereo not given) returned Rango release inh 2% and Rango complex inh 2.2%.
`CCCN1CC(=O)N2Cc3[nH]c4ccccc4c3C[C@H]2C1=O` gave Rango release inh -23%, Rango complex inh inconclusive and miR-21 FLuc -8%.
For O=C(CCS(=O)(=O)c1cc(Br)cc2c1N(C(=O)C1CC1)CC2)N1CCN(c2ccccn2)CC1 the results were GLA inh pH 4.5 14, Rango release inh -1%, Rango complex inh 0.6% and miR-21 FLuc 1%.
`CCc1nnc(NS(=O)(=O)c2ccc(NC(=S)NC(=O)/C=C/c3ccc(F)cc3)cc2)s1` gave GLA inh pH 4.5 -5, Rango release inh -7%, Rango complex inh -2.9% and miR-21 FLuc -6%.
Screening Cc1nc2sccn2c(=O)c1S(=O)(=O)NC(C)c1ccccc1 (stereo not given) returned Rango release inh 28%, Rango complex inh 1.3% and miR-21 FLuc 0%.
`O=C1C(Cc2ccccc2)SC(=Nc2ccccc2)N1c1ccccc1` (stereo not given) gave GLA inh pH 4.5 2, Rango release inh 0%, Rango complex inh 3.3% and miR-21 FLuc -5%.
`COc1ccc(C(=O)NNC(=O)C2=NN(c3ccccc3)C(=O)CC2)cc1` gave Rango release inh 0%, Rango complex inh -1.0% and miR-21 FLuc 0%.
`C[C@@H]1O[C@@H](O[C@H]2[C@H](Oc3cc(O)c4c(c3)O[C@H](c3ccc(O)cc3)CC4=O)O[C@H](CO)[C@@H](O)[C@@H]2O)[C@H](O)[C@H](O)[C@H]1O` gave GLA inh pH 4.5 -2&-1, Rango release inh -11%, Rango complex inh -1.6% and miR-21 FLuc 1%.
CC(C)COC(=O)CCn1[nH]c(=O)c2ccccc2c1=O was read as GLA inh pH 4.5 5, Rango release inh 1%, Rango complex inh 2.4% and miR-21 FLuc -9%.
Screening O=C(CCc1ccccc1)NNC(=O)c1cc(Cl)ccc1O returned Rango release inh -27%, Rango complex inh 0.1% and miR-21 FLuc 20%.
For COc1ccc(Cl)cc1NC(=O)C/C(C)=N/NC(=O)CCc1ccccc1 the results were Rango release inh 36%, Rango complex inh -0.2% and miR-21 FLuc -5%.

Next section, overlapping the part above by three compounds.
CC(C)COC(=O)CCn1[nH]c(=O)c2ccccc2c1=O was read as GLA inh pH 4.5 5, Rango release inh 1%, Rango complex inh 2.4% and miR-21 FLuc -9%.
Screening O=C(CCc1ccccc1)NNC(=O)c1cc(Cl)ccc1O returned Rango release inh -27%, Rango complex inh 0.1% and miR-21 FLuc 20%.
For COc1ccc(Cl)cc1NC(=O)C/C(C)=N/NC(=O)CCc1ccccc1 the results were Rango release inh 36%, Rango complex inh -0.2% and miR-21 FLuc -5%.
`CC1(C)CC(=O)C=C(Nc2cccc(O)c2)C1` gave GLA inh pH 4.5 3, Rango release inh 2%, Rango complex inh -2.8% and miR-21 FLuc -3%.
`CCC(C)NC(=O)CCn1c(-c2ccc(F)cc2)cc(C(C)=O)c1C` (stereo not given) gave GLA inh pH 4.5 8, Rango release inh 13%, Rango complex inh -0.1% and miR-21 FLuc -6%.
Screening CC(C)NC(=O)N(C)C[C@H]1Oc2ccc(NC(=O)C3CCCCC3)cc2C(=O)N([C@H](C)CO)C[C@@H]1C returned Rango release inh 8% and Rango complex inh 0.2%.
`O=C(Nc1cccc(S(=O)(=O)N2CCOCC2)c1)c1ccc(N2CCOCC2)c([N+](=O)[O-])c1` gave GLA inh pH 4.5 2, Rango release inh 1%, Rango complex inh -7.4% and miR-21 FLuc -1%.
Screening COCCN(C(=O)COC(=O)/C=C/c1ccc(C)o1)c1c(N)n(Cc2ccccc2)c(=O)[nH]c1=O returned Rango release inh -20%, Rango complex inh -1.5% and miR-21 FLuc -1%.
`Cn1c(=O)[nH]c(=O)c2c1nc(SCC(=O)O)n2CCCc1ccccc1` gave Rango release inh -3%, Rango complex inh 0.8% and miR-21 FLuc -3%.
O=C(Oc1ccc(C(=S)N2CCOCC2)cc1)c1ccccc1[N+](=O)[O-] was read as Rango release inh 11%, Rango complex inh 0.3% and miR-21 FLuc 1%.
`CN(CC(=O)Nc1ccc(F)cc1)C(=O)COC(=O)c1cc(S(=O)(=O)N(C)C)ccc1N1CCCC1` gave Rango release inh 12% and Rango complex inh -0.7%.
`CCOc1ncccc1C(=O)N1CCN(Cc2ccc3c(c2)OCO3)CC1` gave GLA inh pH 4.5 6, Rango release inh -7%, Rango complex inh -0.1% and miR-21 FLuc -8%.
For COC(=O)c1nn(-c2ccc(OC)cc2)c(=O)cc1Sc1ccc(C)cc1 the results were GLA inh pH 4.5 5, Rango release inh -1%, Rango complex inh 1.4% and miR-21 FLuc 2%.
For Cc1[nH]c(=S)[nH]c(=O)c1Cc1ccccc1 the results were GLA inh pH 4.5 -6, Rango release inh 2%, Rango complex inh -3.4% and miR-21 FLuc -3%.
CC1(C)Cc2cccc(OCC(=O)NCc3ccccc3)c2O1 was read as Rango release inh 14%, Rango complex inh -0.1% and miR-21 FLuc 0%.
For CC12C=CC3(CN(Cc4ccccc4)C(=O)C3C1C(=O)NC1CC1)O2 (stereo not given) the results were GLA inh pH 4.5 5, Rango release inh -15%, Rango complex inh -0.9% and miR-21 FLuc -3%.
Screening CC(C)(C)OC(=O)NCc1ccc(CNC(=O)c2nc[nH]c2C(=O)N2CCc3ccccc3C2)cc1 returned Rango release inh 5% and Rango complex inh -1.3%.
For COc1ccc(OC)c(NC(=O)CSc2nnc(Cc3cccn3C)n2CCc2ccccc2)c1 the results were GLA inh pH 4.5 5, Rango release inh -10%, Rango complex inh -1.8% and miR-21 FLuc -1%.
O=C(O)CCc1nnc(SCC(=O)Nc2ccc(Cl)c(C(F)(F)F)c2)[nH]c1=O was read as GLA inh pH 4.5 -13, Rango release inh -11%, Rango complex inh -3.8% and miR-21 FLuc -1%.
CCCCC1CCC(C(=O)N(CCOC)c2c(N)n(CCCC)c(=O)[nH]c2=O)CC1 (stereo not given) was read as Rango release inh -5% and Rango complex inh -4.5%.
`Cc1c(C(=O)N2CCCC2)c(S(=O)(=O)Nc2cccc(Br)c2)c(C)n1C` gave Rango release inh 25%, Rango complex inh -3.0% and miR-21 FLuc 1%.
For COc1ccc(OC)c(/C=C/C(=O)NC2=NCCS2)c1 the results were GLA inh pH 4.5 0, Rango release inh -12%, Rango complex inh inconclusive and miR-21 FLuc -26%.
For CCOC(=O)C(C)Oc1ccc(NC(=O)C(Cl)Cl)cc1 (stereo not given) the results were GLA inh pH 4.5 1, Rango release inh 0%, Rango complex inh -1.1% and miR-21 FLuc 11%.
N#Cc1c(Cl)nc(N/N=C/c2ccccc2)c(Cl)c1Cl was read as GLA inh pH 4.5 -14, Rango release inh -2%, Rango complex inh 0.6% and miR-21 FLuc -5%.
For COc1cc(C2NC(=O)NC(C)=C2C(=O)OCc2ccc(C)cc2)cc(OC)c1O (stereo not given) the results were GLA inh pH 4.5 4, Rango release inh 1%, Rango complex inh -0.6% and miR-21 FLuc -35%.
For CCCC(=O)Nc1ccc2c(c1)nc1n2CCN(C2CCCCC2)C1 the results were GLA inh pH 4.5 -3, Rango release inh -28%, Rango complex inh 0.9% and miR-21 FLuc -2%.
For CC(C)OC(=O)CC1C(=O)NCCN1C(=O)COc1ccc(C(C)(C)C)cc1 (stereo not given) the results were Rango release inh 13%, Rango complex inh 3.1% and miR-21 FLuc -3%.
`CCOC(=O)c1cnc(-n2[nH]c(C)c(Cc3ccccc3)c2=O)[nH]c1=O` gave GLA inh pH 4.5 -1, Rango release inh 35%, Rango complex inh 1.4% and miR-21 FLuc 2%.
CC(=O)c1c(C)[nH]c(C(=O)OCC(=O)c2ccc(C)s2)c1C was read as Rango release inh -6% and Rango complex inh -6.2%.
COC(=O)c1cc(=O)nc2sc(-c3ccc(F)cc3)nn12 was read as GLA inh pH 4.5 -7, Rango release inh 0%, Rango complex inh -4.3% and miR-21 FLuc -3%.
Screening NC(=O)CSc1ncnc2c1cnn2Cc1ccccc1 returned GLA inh pH 4.5 -6, Rango release inh 10%, Rango complex inh -2.8% and miR-21 FLuc 2%.
`CC(C)NC(=O)C1CCN(Cc2cnn(-c3ccccc3)c2-n2cccc2)CC1` gave GLA inh pH 4.5 -5, Rango release inh 2%, Rango complex inh 1.1% and miR-21 FLuc -1%.
For CN(C)CCNC(=O)c1cccc2ccc(-c3ccc(-c4ccccc4)cc3)nc12 the results were Rango release inh 5% and Rango complex inh -0.6%.
CN(c1cccc(NS(=O)(=O)c2cccs2)c1)S(C)(=O)=O was read as GLA inh pH 4.5 8, Rango release inh 12%, Rango complex inh 0.2% and miR-21 FLuc -1%.
For COc1ccc(NC(=O)COC(=O)/C=C/c2ccccc2[N+](=O)[O-])cc1OC the results were GLA inh pH 4.5 3, Rango release inh -5%, Rango complex inh -0.3% and miR-21 FLuc -9%.
Screening Fc1ccc2nc(C3CCN(Cc4nc(CC5CC5)no4)CC3)[nH]c2c1 returned GLA inh pH 4.5 11, Rango release inh -8%, Rango complex inh -2.7% and miR-21 FLuc 0%.
`CCOC(=O)C1CCCN(C2=NC(=O)/C(=C/c3ccc(OC)c(OC)c3)S2)C1` (stereo not given) gave Rango release inh 0%, Rango complex inh -1.0% and miR-21 FLuc -4%.

Compounds above containing a thiophene ring, fused or not:
CC(=O)c1c(C)[nH]c(C(=O)OCC(=O)c2ccc(C)s2)c1C was read as Rango release inh -6% and Rango complex inh -6.2%.
CN(c1cccc(NS(=O)(=O)c2cccs2)c1)S(C)(=O)=O was read as GLA inh pH 4.5 8, Rango release inh 12%, Rango complex inh 0.2% and miR-21 FLuc -1%.
